Bfl-1 A1 inh – inhibitors of the anti-apoptotic protein A1, read as caspase activation | MEF A1-2A-BIM cells, Caspase-Glo 3/7 luminescence, 3 h; percent of clofoctol response, vehicle zero | caspase activation, % (concentration not given with the values) | 0.066% of 330,000 active | AID 2462;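 active means over half of replicate activation scores above 10%, or exactly half above 10 with the replicate mean above 10; inconclusive means replicate mean below 10 yet half the replicates above 10; inactive means over half of replicates below 10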;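 further: wells of about 30 µL received 50 nL stock; many hits fall short of the cut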
AF4-AF9 inh – blocks AF4 peptide binding to human AF9; 0.47% of 350,000 active; inhibition, % at 10 µM; AlphaScreen, biotin-AF4 peptide binding to FLAG-AF9; P42568;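 active means every replicate reaching a set inhibition limit, whatever the replicate mean, cut at about 25% in these data; inconclusive means mean inhibition reaches that limit but some replicates miss it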;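 further: 0% = plate neutral control median and 100% = total signal loss; the record names both 10 and 1 µM as test concentration; the first replicate is given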
Target sequence (P42568 whole entry, looked up): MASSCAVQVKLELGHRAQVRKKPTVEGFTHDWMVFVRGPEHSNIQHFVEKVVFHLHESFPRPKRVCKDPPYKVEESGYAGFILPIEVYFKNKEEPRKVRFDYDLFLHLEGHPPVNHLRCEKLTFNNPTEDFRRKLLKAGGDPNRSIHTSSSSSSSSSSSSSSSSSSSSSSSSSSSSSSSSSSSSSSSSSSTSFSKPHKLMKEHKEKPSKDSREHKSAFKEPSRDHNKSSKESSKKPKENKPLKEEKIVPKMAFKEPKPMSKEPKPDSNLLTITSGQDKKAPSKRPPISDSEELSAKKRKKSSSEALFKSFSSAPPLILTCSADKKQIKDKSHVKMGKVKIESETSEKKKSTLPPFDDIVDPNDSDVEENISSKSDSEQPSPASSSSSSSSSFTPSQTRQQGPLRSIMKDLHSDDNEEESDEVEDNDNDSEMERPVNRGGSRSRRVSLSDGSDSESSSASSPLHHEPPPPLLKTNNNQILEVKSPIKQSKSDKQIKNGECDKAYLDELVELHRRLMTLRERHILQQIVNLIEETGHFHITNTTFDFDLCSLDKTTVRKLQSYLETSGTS
Calb FLC – affects C. albicans growth with fluconazole. growth inhibition, % (concentration not given with the values). 0.57% of 300,000 active. C. albicans CaCi-2 (fluconazole-resistant clinical isolate) + fluconazole, Alamar Blue growth, 48 h;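 active means most replicates above 75%; inconclusive means exactly half above 75%; inactive means most below 75%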;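 further: all wells also contain fluconazole at 8 µg/ml as a sub-toxic cotreatment; 0% = median of DMSO wells and 100% = median of geldanamycin control wells; wells of about 8 µL received 7.5 nL stock; the first replicate is given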
Beta cell apopt – beta cell apoptosis inhibition | AID 435005 | 0.8% of 300,000 active | protection from apoptosis, % (no concentration beside the values) | INS-1E cytokine-induced death, ATP luminescence, 48 h; percent of positive-control rescue, neutral wells zero;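 active means all replicates at 75% or more, or half of them and the mean; inconclusive means half reach 75% but not the mean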;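 further: 0% = cytokine-treated negative control wells and 100% = positive control rescue; higher means more ATP so stronger rescue from cytokine killing; wells of about 40 µL received 100 nL stock; the first replicate is given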
Ecoli rRNA inh – inhibits bacterial ribosomal RNA function over humanized ribosomes. E. coli WT GFP vs humanized-ribosome RFP mutants, fluorescence, 24 h; hits give low values; DMSO median 0, no signal -100. GFP signal change (wild-type ribosome), % (no concentration beside the values). 1.6% of 350,000 active. AID 720706;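 active means significant combined selectivity score with lowered wild-type GFP, culture density cut under 30%, mutant RFP and density less affected; inactive means any of these conditions unmet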; further: one replicate is shown; some compounds called inactive have numbers as strong as hits
T cruzi inh – blocks replication of Trypanosoma cruzi; 1.4% of 300,000 active; T. cruzi beta-gal in NIH3T3, luminescence, 90 h; inhibition, % (no concentration beside the values);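 active means mean inhibition across valid replicates above about 55%, limit read from the data; inconclusive means mean below that limit but half or more replicates reach it; inactive means mean below it, under half of replicates reach it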;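 further: signal also drops with host cell toxicity which is not excluded here; 0% = plate median of DMSO wells and 100% = zero luminescence signal; higher percent means less beta-gal luminescence so fewer parasites; stock transfer was 50 nL into about 50 µL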
RanGTP-Imp inh – inhibitors of RanGTP-importin-beta interaction, primary screen, biochemical, FRET, CFP-Ran, YFP-importin-beta, homogeneous; cell-free CFP-Ran/YFP-importin-beta FRET ratio; inhibition, % (no concentration beside the values); 1.1% of 300,000 active; AID 2216;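 active means most replicates above 15%; inconclusive means exactly half above 15%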;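 further: 0% = DMSO wells and 100% = Ran loaded with GDP instead of GTP; wells of about 40 µL received 100 nL stock; the first replicate is given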
Vif A3G – inhibitors of Vif binding to APOBEC3G peptide, primary screen, biochemical, TR-FRET, GST-Vif 1-94, biotin-A3G peptide, dose response retest (AID 1117319); TR-FRET GST-Vif / biotin-A3G peptide binding; higher % means a stronger effect; test concentration not given here; strong numbers were not always called active; one-dose inhibition, %; IC50 in µM for titrated hits; 0.57% of 260,000 active;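 active means above the screen mean plus three standard deviations and confirmed in dose response; inconclusive means results disagree or hit not tested in dose response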;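 further: Vif residues 1-94 fused to GST binding biotinylated APOBEC3G peptide 110-148; 0% = full assay without inhibitor and 100% = GST in place of GST-Vif; retest series ran down from 100 µM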
Ecoli rRNA inh OD600 – recorded beside Ecoli rRNA inh, whose call it bears; OD600 change, %; measured here: OD600 growth;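 optical density of the mix in the first replicate; 0 = DMSO median and -100 = no signal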
Ecoli rRNA inh RFP – second read-out of Ecoli rRNA inh, no call of its own (marks repeat the call); RFP signal change, %; measured here: RFP humanized mutant strains;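 first replicate; 0 = DMSO median and -100 = no signal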
An asterisk follows results filed as active; ? = inconclusive; nt = not tested or not shown; & = joins results of further samples.

Under each structure: Calb FLC, AF4-AF9 inh, RanGTP-Imp inh, Bfl-1 A1 inh, Ecoli rRNA inh RFP, Ecoli rRNA inh, Beta cell apopt, T cruzi inh, Vif A3G, Ecoli rRNA inh OD600
> CCCCn1c(N)c(N(CCC(C)C)C(=O)c2cc(S(=O)(=O)N3CCOCC3)ccc2F)c(=O)[nH]c1=O
 : -4.8, -70.5, 3.2, -0.6, -2.1, 2.1, -0.4, -8.1, 2.1%, 5.6
> Cc1ccc(C(=O)n2nnc3ccccc32)cc1
 : -2.2, nt, -1.7, 1.2, nt, nt, nt, -5.7, nt, nt
> O=C(NNS(=O)(=O)c1ccc(C(F)(F)F)cc1)c1cnn(-c2ccccc2)c1C(F)(F)F
 : -4.4, -4.7, -0.8, -0.2, 0.8, -2.6, -8.3, -35.0, 1.4%, 25.1
> CC(=O)N1CCN(c2ccc(S(=O)(=O)N3CCCCC3)cn2)CC1
 : -8.2, nt, -1.6, 0.6, nt, nt, 0.9, -15.6, ?, nt
> Cc1nn(C)c(C)c1NC(=O)CSc1nc(-c2ccccc2Cl)nc2c1cnn2-c1ccccc1
 : -8.6, nt, -4.2, -0.1, nt, nt, -4.0, 3.1, -15.4%&-15.3%, nt
> Cc1ccc(C)c(S(=O)(=O)Nc2ccc(C(=O)N3CCC3)cc2)c1
 : nt, -1.9, -4.8, 0.7, -0.1, 15.8, 4.6, 10.4, -2.5%, 12.8
> O=C1[C@@H]2Cc3c([nH]c4ccccc34)CN2C(=O)CN1CCCCCO
 : -1.0, -0.6, 1.1, 0.6, 2.2, 12.4, -2.3, 11.7, 0.7%, 15.8
> CCCN1C(=S)SC(C)(C)C1/[N+]([O-])=C/c1cccnc1 (centres undefined)
 : -0.2, nt, 8.9, 0.4, nt, nt, -5.4, 0.2, -0.3%, nt
> CCOc1ccc(C2C(C(=O)c3ccc(C)o3)=C(O)C(=O)N2c2nc(C)c(C(=O)OC)s2)cc1 (centres undefined)
 : 11.9, 5.6, 10.6, 0.5, 1.1, -0.1, -3.5, -20.1, -366.1%, 12.6
> CN(CC(=O)Nc1cccc(F)c1)C(=O)c1cc(=O)[nH]c2ccccc12
 : nt, -2.7, nt, -0.1, 4.0, 8.4, -2.5, nt, -5.9%, 11.4
> Cc1ccc(CN2CCCC(CO)(Cc3ccccc3C)C2)s1 (centres undefined)
 : 3.8, 3.3, -1.0, 1.5, -4.7, -33.0, nt, 8.5, 5.3%, -30.8
> CCn1c(CNC(=O)c2ccco2)nnc1SCC(=O)Nc1cc(C)c(C)cc1Br
 : -10.6, nt, ?, -0.1, nt, nt, nt, 1.6, 2.0%, nt
> COc1ccc(OC)c(NC(=O)CSc2nnc(CCCO)n2-c2ccccc2)c1
 : 2.9, nt, -2.0, 0.5, nt, nt, 2.8, -1.7, 76.2%, nt
> CCOC(=O)/C(=C\c1ccccc1)NC(=O)c1ccccc1
 : -8.1, -0.8, 2.9, 0.7, -2.3, -13.0, -2.6, 9.1, >100µM*, -11.1
> CCOc1ccc(OC(=O)NC(c2ccccc2)C(Cl)(Cl)Cl)cc1 (centres undefined)
 : 7.7, nt, 0.2, 0.4, nt, nt, -1.8, -4.6, -10.4%, nt
> Nn1cnc2c([nH]c3ccccc32)c1=O
 : -1.8, -22.6, -1.9, 0.0, 4.0, 12.2, -8.3, -6.0, 16.5%, 7.2
> O=[N+]([O-])c1ccc(Nc2nccc(Cl)n2)cc1
 : -0.3, -0.2, 4.2, -1.7, 2.6, 16.6, 1.1, 6.1, nt, 13.8
> O=C(Nc1cccc2cccnc12)c1ccc(Cl)cc1
 : -5.1, -7.9, -0.6, 0.3, 0.9, -8.2, nt, -10.7, -5.5%, -18.6
> CC(OC(=O)c1ccccc1N1C(=O)C2C3CCC(C3)C2C1=O)C(=O)c1ccccc1 (centres undefined)
 : 0.3, nt, 2.5, 0.9, nt, nt, -2.5, 8.0, 3.6%, nt
> C/C(=N\OC(=O)Nc1ccccc1)c1ccc(C)cc1
 : -1.5, 1.2, ?, -4.9, 1.1, 4.2, -1.4, -1.3, nt, 4.6
> Cc1cc(Br)c(OCc2ccc(C(=O)N/N=C3\CC4CC=CC34)cc2)c(Br)c1 (centres undefined)
 : 1.6, nt, 0.4, 0.8, nt, nt, -12.4, -9.1, 7.9%, nt
> CCn1c(CN2CCN(c3ccc(OC)cc3)CC2)nc2cc(S(=O)(=O)N(C)C)ccc21
 : 0.9, 9.0, 4.0, 0.4, -1.8, 4.6, 1.0, 7.7, -1.3%, -8.2
> COc1ccccc1CNC(=O)C1CCN(S(=O)(=O)c2c(C)noc2C)CC1
 : 4.2, nt, 3.9, -0.6, nt, nt, 0.2, -8.8, 4.4%, nt
> COc1cc(C2CC(C(F)(F)F)n3ncc(C(=O)O)c3N2)cc(OC)c1OC (centres undefined)
 : -1.2, nt, -0.4, 0.1, nt, nt, 2.2, 3.4, 0.8%, nt
> NS(=O)(=O)c1ccc(NC(=O)CSc2nnc(-c3ccc(O)cc3)o2)cc1
 : -4.3, 2.1, 2.7, -1.1, -0.3, 4.0, -2.1, -10.7, nt, 10.6
> O=C(c1ccc(N2CCCC2)c([N+](=O)[O-])c1)N1CCc2ccccc2C1
 : 2.7, 11.0, -4.7, -0.3, 5.2, -22.8, -6.9, 8.2, 2.8%, -46.0
> Cc1ccc(F)cc1NC(=O)CSCc1nc2sc(C)c(C)c2c(=O)[nH]1
 : 4.8, 0.2, -6.9, 0.5, -1.9, -13.7, -1.8, -5.3, 3.6%, -10.5
> Cc1cc(Cl)ccc1OCC(=O)Nn1c(C)ccc1C
 : -15.0, nt, 6.9, -0.8, nt, nt, 0.0, 29.1, 23.9%, nt
> Cc1cccc(-n2c(C)cc(/C=N/n3cnnc3)c2C)c1
 : -3.1, nt, -0.5, -0.7, nt, nt, 110.6*, 8.3, -5.9%, nt
> CC(C)C(NC(=O)c1cccc(S(=O)(=O)N2CCOCC2)c1)C(=O)NCCc1ccccn1 (centres undefined)
 : -9.4, nt, -0.3, 0.4, nt, nt, -8.4, -5.2, 3.9%, nt
> CCn1nc(C(=O)OCC(=O)N2CCc3ccccc32)c2ccccc2c1=O
 : -9.1, nt, -0.6, 0.4, nt, nt, -6.0, -0.8, 25.0%, nt
> Cc1[nH]n(-c2ccccc2)c(=O)c1/C=N/Nc1nncc(-c2ccccc2)n1
 : 104.5*, 8.6, ?, 0.6, -1.9, -2.4, 91.1*, 69.9*, 15.3%, 0.2
> O=C(Nc1ccccc1)N1CCN(C2c3ccccc3-c3ccccc32)CC1
 : 10.1, 2.1, 6.0, 0.3, 3.1, 14.2, -2.4, 28.8, -8.1%, 2.5
> COc1ccc(NS(=O)(=O)c2cccc(C(=O)NC3CCC(O)CC3)c2)cc1 (centres undefined)
 : -2.1, -1.2, 0.5, 0.1, 4.3, -8.0, nt, -5.0, -0.6%, 7.3
> O=C(CSc1ncccc1-c1nc2ccccc2[nH]1)N1CCN(c2ccccc2F)CC1
 : 46.0, nt, -20.8, -1.0, nt, nt, 2.6, 2.0, -4.7%&-8.5%, nt
> O=C(CN1CCc2ccccc21)NCc1ccc2c(c1)OCO2
 : -78.2, 0.3, -5.1, 0.5, 3.0, -2.0, 1.8, -0.5, nt, 5.9
> CCC(C)NC(=O)c1c(C)cc(=O)oc1C (centres undefined)
 : 25.9, nt, 6.2, 0.4, nt, nt, 0.6, -5.0, -7.8%, nt
> Cc1cc(C)cc(NC(=O)C2CCCN2C(=O)Oc2ccccc2)c1 (centres undefined)
 : -20.8, nt, 1.7, 1.1, nt, nt, -4.0, -2.2, 5.1%, nt
> Cc1ccc(Cn2c(Sc3nccc(C)n3)nc3c2c(=O)[nH]c(=O)n3C)cc1
 : 2.5, nt, -2.8, 0.6, nt, nt, 5.8, 1.7, 3.3%, nt
> COCCNC(=S)N(Cc1cccnc1)Cc1ccc(OC)c(OC)c1
 : -5.2, nt, 0.2, 0.1, nt, nt, -6.8, -3.9, nt, nt
> Cc1c(C(=O)NC2=NCCS2)oc2ccccc12
 : 11.9, 6.0, -0.3, -9.8, 2.9, -1.1, 4.2, -4.3, -5.5%, -1.6
> CCOC(=O)c1c(S(=O)(=O)NCC(=O)N2CCN(c3ccc(F)cc3)CC2)c(C)n(C)c1C
 : -9.0, 1.8, 1.1, 0.8, 0.2, 2.9, -2.7, -11.9, nt, 8.4
> Cc1sc(NC(=O)C2CCCCC2C(=O)O)c(C(N)=O)c1-c1ccccc1 (centres undefined)
 : -4.8, nt, 0.8, 0.5, nt, nt, -3.2, -18.0, -3.9%, nt
> N#Cc1cc2cc3ccccc3nc2n2c(=O)c3ccccc3nc12
 : -7.4, -0.9, -2.4, 0.4, -1.1, 25.4, -3.7, 0.2, nt, 18.4
> COc1cc(/C=C/C(=O)O)cc(S(=O)(=O)Nc2ccc3nc(C)sc3c2)c1OC
 : -8.2, -6.3, -2.5, 0.0, -4.4, 9.9, -6.7, -4.4, ?, -1.9
> CC(C)(C)NC(=O)Cn1cnc([N+](=O)[O-])n1
 : 4.1, nt, 2.7, -0.8, nt, nt, 13.0, 50.4, 0.9%, nt
> Cc1cc(C)c(S(=O)(=O)Nc2nnc(C)s2)c(C)c1
 : 1.1, nt, 2.8, -0.8, nt, nt, -5.2, nt, 6.2%, nt
> CCc1nnc(SCC(=O)Nc2ccc(C(C)=O)cc2)nc1CC
 : 4.5, nt, -3.6, -0.2, nt, nt, -0.1, 1.5, 2.8%, nt
> CCC1C(O)=C(c2ccccn2)C(=N)N1c1ccccc1 (centres undefined)
 : -14.8, -9.7, 3.4, 0.2, 0.7, 3.1, nt, -7.4, 1.9%, -1.9
> Cn1c(SCC(=O)c2ccc3c(c2)Cc2ccccc2-3)nnc1-c1ccccc1
 : -12.0, nt, 2.0, 1.7, nt, nt, 2.5, -21.0, -1.9%, nt
> Cn1nnnc1NCc1ccc(Cl)c(Cl)c1
 : -4.5, -3.8, 1.5, 0.6, -3.6, -5.2, -7.2, -6.2, -5.7%, -7.5
> CC(=O)Nc1ccc(S(=O)(=O)NCCN2CCNC2=O)cc1Cl
 : -3.6, 0.7, 2.0, 0.0, -2.1, 3.3, -2.4, -17.0, -6.8%, 0.9
> COc1ccc(C(=O)n2nnc3ccccc32)cc1OC
 : nt, 1.6, nt, 0.1, -1.5, 2.4, -1.6, nt, -2.2%, 11.3

Screens as filed in PubChem.

Only part of the results is shown; the hit share may differ from the screen's.
